# NS1 inh: qHTS Assay for Inhibitors of Influenza NS1 Protein Function; Potency, µM (series often up to 46.1 µM), for the others: at the highest dose activity, positive = more growth; 0.4% of 270,000 active; AID 2326, 2010; S. cerevisiae slowed by influenza A NS1, growth recovery by OD600; active means well fitted rising curve with a large enough effect; inconclusive means small, poorly fitted or top-dose-only effect; inactive means no such curve, though single readings can be large or run the other way; note: nearly all actives have a fitted effect of over 50% in size
#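 Compounds were scored for reversing the slow growth caused by influenza A NS1 in S. cerevisiae, measured by optical density at 600 nm. Assay medium contained 2% galactose at pH 6.0; NS1-free yeast of the same strain were the positive control.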
# Marburg entry inh: qHTS for inhibitors of binding or entry into cells for Marburg Virus. Potency, µM (titrated, usually from 37.8 µM), inactives show at the highest dose activity change, negative = inhibition, actives largely listed as inhibitors. Marburg virus pseudotyped entry inhibition, cell reporter; control for the full effect not named in the record; about a third of the inactives were read at about 46 µM. 1.8% of 300,000 active. AID 540276, 2011; active = well fitted inhibition curve with a large enough effect; inconclusive = small, poorly fitted or top-dose-only effect, or effect the other way; inactive = flat fitted curve, though single readings scatter; tested in HEK293 cells; about a fifth of its hits are not listed in these tables; note: % is set by controls: 0 for no effect and ±100 for the full control effect; luciferase read-out
# LASV entry inh: qHTS for Inhibitors of binding or entry into cells for Lassa Virus; Lassa virus pseudotype entry inhibition, cell reporter; control for the full effect not named in the record; 1.2% of 300,000 active; AID 540256, 2011; Potency, µM (titrated, usually from 37.9 µM), for the others: at the highest dose activity change, negative = inhibition, most hits filed as inhibitors; active means well fitted inhibition curve with a large enough effect; inconclusive means small, poorly fitted or top-dose-only effect, or effect the other way; inactive means flat fitted curve, though single readings scatter; tested in HEK293 cells; note: % is set by controls: 0 for no effect and ±100 for the full control effect; nearly all actives have a fitted effect of over 50% in size; luciferase read-out
# RE007 growth inh: qHTS Assay for Inhibitors of the HIV-1 protein Vpr; S. pombe RE007 Vpr strain, BacTiter-Glo ATP luminescence, 24 h; control for the full effect not named in the record; Potency, µM (doses to about 92.2 µM), without a hit: top-dose activity change, negative = less growth; 0.21% of 360,000 active; active = well fitted falling curve with a large enough effect; inconclusive = small, poorly fitted or top-dose-only effect; inactive = no such curve, though single readings can be large or run the other way;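 note: % is set by controls: 0 for no effect and ±100 for the full control effect; nearly all actives have a fitted effect of over 50% in size; the assay follows cell death caused by Vpr and the record does not say whether a fall means rescue or toxicity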
#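 Fission yeast RE007 carrying one integrated HIV-1 vpr copy, seeded at OD 0.01 in PMG+AL medium with 23 nL pinned compound. Grown 24 h at 30 degrees; viability read by BacTiter-Glo luminescence after 5 min.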
# Cruzain Triton: qHTS Assay for Promiscuous and Specific Inhibitors of Cruzain (with detergent). Cruzipain (Trypanosoma cruzi), P25779. purified cruzain, Z-FR-AMC fluorescence, 0.01% Triton. Potency, µM, inactives show max response, negative = inhibition, usual class: inhibitors. 0.43% of 200,000 active. AID 1478, 2009;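 note: plate controls were neutral wells for no effect and buffer without enzyme for full effect; nearly all actives have a fitted effect of over 40% in size; top concentration of the series not given in the record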
# Target sequence (P25779 123-467 limits assumed): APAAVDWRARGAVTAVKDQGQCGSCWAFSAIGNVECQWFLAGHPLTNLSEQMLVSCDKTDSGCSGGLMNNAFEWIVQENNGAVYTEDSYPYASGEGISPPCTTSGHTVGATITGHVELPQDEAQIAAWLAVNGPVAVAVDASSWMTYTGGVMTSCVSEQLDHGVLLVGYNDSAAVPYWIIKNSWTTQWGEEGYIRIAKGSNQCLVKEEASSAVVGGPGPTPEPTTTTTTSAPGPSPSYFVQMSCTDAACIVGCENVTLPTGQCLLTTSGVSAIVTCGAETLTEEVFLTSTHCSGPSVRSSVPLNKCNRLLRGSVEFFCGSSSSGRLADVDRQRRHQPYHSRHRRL
#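 Compounds were screened in titration against cruzain (1.5 nM) with 0.01% Triton X-100 to counter colloidal aggregation. Activity was the AMC fluorescence increase over 60 s after adding 2 uM Z-FR-AMC at pH 5.5.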
# SARS PLP yeast: qHTS of Yeast-based Assay for SARS-CoV PLP. AID 485353, 2010. Potency, µM (doses to about 32.9 µM), without a hit: at the top dose activity, positive = growth rescue. S. cerevisiae expressing SARS-CoV PLpro, growth rescue; control for the full effect not named in the record. 0.19% of 330,000 active; active means well fitted rising curve with a large enough effect; inconclusive means small, poorly fitted or top-dose-only effect; inactive means no such curve, though single readings can be large or run the other way; note: 0% is about no effect; nearly all actives have a fitted effect of over 55% in size; growth read by luminescence after 48 h
# StopGo reporter: High Throughput Screening for Foot and Mouth Disease Virus Antivirals; human cells with a luciferase reporter of 2A StopGo recoding; control for the full effect not named in the record; 1.2% of 410,000 active; Potency, µM (top dose mostly 57.9 µM), without a hit: at the highest dose signal change, negative = less light; active = well fitted falling curve with a large enough effect; inconclusive = small, poorly fitted or top-dose-only effect; inactive = no such curve, though single readings can be large or run the other way; tested in HEK293T cells; note: % is set by controls: 0 for no effect and ±100 for the full control effect; nearly all actives have a fitted effect of over 45% in size; luciferase light after 4 h
# Cruzain inh noDet: qHTS Assay for Promiscuous and Specific Inhibitors of Cruzain (without detergent) | AID 1476, 2009 | Potency, µM, for the others: max response, negative = inhibition, most hits filed as inhibitors | Cruzipain (Trypanosoma cruzi), P25779 | 2.3% of 200,000 active | purified cruzain, Z-FR-AMC fluorescence, no detergent;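 note: plate controls were enzyme without inhibitor for no effect and buffer without enzyme for full effect; nearly all actives have a fitted effect of over 40% in size; top concentration of the series not given in the record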
#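 Detergent-free condition (0.00005% Triton X-100) in acetate buffer pH 5.5 with DTT. 1.5 nM enzyme and compound were pre-mixed 15 min, then 2 uM Z-FR-AMC substrate added; reaction progress from fluorescence change between first and third reads (60 s).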
# * = called active by the depositor; ? = inconclusive; / = not tested or not shown; & = joins results of further samples; [ ] = dose if it differs, or a comment. Unless noted, calls come from the whole dose curve; as a rule, active = well fitted curve in the direction sought with a large enough effect; inconclusive = small, poorly fitted or top-dose-only effect, or another doubt; inactive = no such curve, though single readings can be large; an effect the other way counts as inactive or inconclusive. Potency is the fitted concentration of half-maximal effect.
SMILES,NS1 inh,Marburg entry inh,LASV entry inh,RE007 growth inh,Cruzain Triton,SARS PLP yeast,StopGo reporter,Cruzain inh noDet
Cc1cc(C)c2c(n1)SCC(=O)N2CC(=O)Nc1c(C)cccc1C,0%,2%[46.1 µM],?,16%,0.3%,-2%,-3%&-16%,8%
CC1CCN(C(=O)c2cc3c(=O)n4ccccc4nc3s2)CC1,-15%,5%[46.1 µM],5%[46.1 µM],0%,/,-1%,53%[activator],/
CCC1(CC)Cc2ccccc2-c2nc(NN)[nH]c(=O)c21,13%,-28%[46.1 µM],4%,-9%,/,-1%,41%[activator],/
CCOC(=O)C1CCN(C(=O)C2CCN(S(=O)(=O)c3cc(Cl)ccc3OCC)CC2)CC1,-14%,5%,-8%,11%,/,0%,-20%,/
Cc1nc(-c2ccccc2)sc1C(=O)NN,/,-10%,-10%,5%,/,0%,8%,/
CCCC(=O)NC(C)c1nc2ccccc2[nH]1 (configuration not stated),14%,/,/,-2%,4.3%,10%,-20%,2%
COc1cc(/C=N/NC(=O)c2cccnc2)ccc1OCC(=O)N1CCOCC1,17%,2%,7%,/,-4.9%,1%,-20%,-1%
CC(=O)COc1ccc2c(-c3cccc([N+](=O)[O-])c3)cc(=O)oc2c1,-1%,/,/,1%,/,0%,-3%,/
Cc1cc(OCC(=O)NCCCN2CCCC2=O)c2c(C)cc(=O)oc2c1,9%,/,/,5%,/,1%,-23%,/
COc1ccc(Cn2nc(C)cc2C)cc1OC,10%,-15%[46.1 µM],-1%,14%,8.0%,22%,-13%,12%
CCC(=O)Nc1cc2c(cc1Cl)-c1ccccc1C2,/,5%,10%,-16%,/,/,66%[activator],/
CCn1c(=O)c2cc(C(=O)Nc3cccc(C(C)=O)c3)sc2c2ccccc21,-4%,/,/,-8%,/,-3%,-9%,/
CC(C)CSc1nc2c(=O)[nH][nH]c(=O)c2n1Cc1ccccc1,17%,-2%,9%,3%,-1.5%,8%,6%,-13%
O=C1c2ccsc2SCCN1Cc1ccc(F)cc1,-3%,/,/,-12%,/,1%,-16%,/
O=C(O)COc1ccccc1,/,-1%,/,11%,3.8%,-1%,-23%,-10%
CCOC(=O)c1cc(-c2ccccc2)n(CCC(=O)Nc2nc3c(C)cccc3s2)c1C,/,/,-23%[46.1 µM],/,-1.9%,/,-20%,?
O=C(COc1ccccc1)N1CCN=C1SCc1cccnc1,3%,-20%[46.1 µM],-5%,-29%,1.6%,-2%,-15%,-8%
COc1ccc(C(=O)CSc2nnc(NC(=O)C3CC(=O)N(c4ccccc4C)C3)s2)cc1 (configuration not stated),9%,?,-3%,-13%,-7.0%,9%,-18%,-2%
Cc1nc2ccc(S(=O)(=O)NC(C(=O)Nc3nccs3)C(C)C)cc2s1 (configuration not stated),11%,/,/,7%,3.5%,0%,0%,-8%
Cc1ccccc1NC(=O)c1c(O)c2cccc3c2n(c1=O)CC3,-3%,/,/,/,2.8%,-1%,/,-12%

# Full records, looked up by structure. Order of screens: NS1 inh | Marburg entry inh | LASV entry inh | RE007 growth inh | Cruzain Triton | SARS PLP yeast | StopGo reporter | Cruzain inh noDet
# `COc1ccc(C(=O)CSc2nnc(NC(=O)C3CC(=O)N(c4ccccc4C)C3)s2)cc1` (configuration not stated) in the list: 9% | ? | -3% | -13% | -7.0% | 9% | -18% | -2%
# `CCC(=O)Nc1cc2c(cc1Cl)-c1ccccc1C2` in the list: / | 5% | 10% | -16% | / | / | 66%[activator] | /
# `Cc1nc2ccc(S(=O)(=O)NC(C(=O)Nc3nccs3)C(C)C)cc2s1` (configuration not stated) in the list: 11% | / | / | 7% | 3.5% | 0% | 0% | -8%
# `O=C1c2ccsc2SCCN1Cc1ccc(F)cc1` in the list: -3% | / | / | -12% | / | 1% | -16% | /
# `CC(C)CSc1nc2c(=O)[nH][nH]c(=O)c2n1Cc1ccccc1` in the list: 17% | -2% | 9% | 3% | -1.5% | 8% | 6% | -13%

# Continued.
SMILES,NS1 inh,Marburg entry inh,LASV entry inh,RE007 growth inh,Cruzain Triton,SARS PLP yeast,StopGo reporter,Cruzain inh noDet
COc1ccccc1N1CCN(C(=O)CCc2ccc(S(=O)(=O)NCC(C)C)cc2)CC1,-8%,?,0%,-4%,-0.7%,/,?,?
O=C(c1ccc(-n2cccc2)cc1)N1CCOCC1,6%,18%,1%,-8%,7.1%,4%,19%,-5%
COc1cc(NC(=O)c2cc(-c3ccco3)on2)c(OC)cc1Cl,-14%,2%,-14%,13%,4.5%,-2%,-5%,10µM*
CC(C(=O)Nc1ccc(N(C)C)cc1)N1C(=O)c2ccccc2S1(=O)=O (configuration not stated),/,?,5%,-2%,/,1%,14%,/
O=C(N[C@H]1CCCCNC1=O)c1cc(COc2ccc(F)cc2F)on1,4%,/,/,5%,/,28%,21%,/
C=C1c2ccccc2NC(=S)N1Cc1ccc2c(c1)OCO2,/,?,10%,-12%,/,0%,62%[activator],/
O=C1CN(C(=O)c2ccc(S(=O)(=O)N3CCCC3)cc2)C(c2ccc(F)cc2)c2cc(Br)ccc2N1 (configuration not stated),/,?,?,/,-2.1%,/,0%,-9%
OC1CCN(C(=S)Nc2ccc(Nc3ccccc3)cc2)CC1,-2%,21%[46.1 µM],27%[46.1 µM],2%,/,1%,12%,/
COc1ccc(C2Nc3ccccc3C(=O)N2NS(=O)(=O)c2ccc(C)cc2)cc1 (configuration not stated),/,?,?,0%,/,-1%,1%,/
CN(Cc1c(C(=O)N2CCc3ccccc3C2)nc2ccc(Cl)cn12)C(C1CC1)C1CC1,4%,15%,0%,6%,/,1%,-11%,/
O=C(CC1N=C2c3ccccc3N=C(SCc3ccc(F)cc3)N2C1=O)NCc1cccs1 (configuration not stated),/,/,?,/,-4.4%,/,-18%,?
CN1CCN(c2nc3c(c(=O)[nH]c(=O)n3C)n2CC(N)=O)CC1,-4%,28%,8%,-7%,4.5%,2%,-5%,0%
CC(=O)C1=C(C)Nc2ncnn2C1c1ccc(Br)cc1 (configuration not stated),-6%,/,/,1%,/,1%,-9%,/
N#Cc1ccc(S(=O)(=O)NC2CCCCNC2=O)cc1 (configuration not stated),-7%,25%,-17%,27%,/,1%,-12%,/
O=C(CSCCO)Nc1cc(C(F)(F)F)ccc1Cl,-5%,10%,-8%,-3%,8.2%,2%,1%,0%
CCc1ccccc1Nc1nc2ccccc2n1CC,/,-9%[46.1 µM],0%[46.1 µM],-21%,/,0%,-4%,/
Cc1cc(=O)[nH]c(SCC(=O)Nc2ccc3c(c2)OCCO3)n1,0%,-13%[46.1 µM],?,3%,/,1%,-3%,/
CCOCCOC(=O)c1[nH]c2c(c1C)C(=O)CC(c1ccccc1)C2 (configuration not stated),-4%,?,/,1%,/,1%,-20%,/
O=C(NCCc1ccccc1)C1CCN(S(=O)(=O)N2CCOCC2)CC1,6%,/,/,14%,/,-1%,-5%,/
CC12CCC(C(=O)OC3CCCCC3)(OC1=O)C2(C)C (configuration not stated),18%,/,/,-6%,/,1%,-2%,/
CSCC(C)N1CCC(n2nccc2NC(=O)c2ccccc2C)CC1 (configuration not stated),1%,/,/,-11%,/,-1%,-21%,/
Cc1c(C(=O)N(C)C)sc2c1c(=O)n(-c1ccc(Cl)cc1)c(=O)n2Cc1ccccc1F,/,/,-11%[46.1 µM],/,2.0%,/,-12%,-7%
CC(c1ccccc1)N1C(=O)NC(NC(=O)c2cccnc2)(C(F)(F)F)C1=O (configuration not stated),2%,3%,2%,5%,1.0%,14%,1%,9%
O=C1OCc2ccc(NC(=O)c3ccccc3C(=O)O)cc21,5%,/,/,-5%,/,-2%,-16%,/
O=C(c1ccc([N+](=O)[O-])cc1)N1CCc2ccccc2C1,-15%,3%[46.1 µM],7%,-5%,-0.8%,?,5%,-3%
O=Cc1cn(CC(=O)Nc2ccc3c(c2)OCO3)c2ccccc12,/,-26%[46.1 µM],?,5%,/,1%,-8%,/
COc1ccc(OCC(=O)Nc2c3c(nn2-c2ccccc2)CS(=O)(=O)C3)cc1,1%,1%,-1%,5%,/,5%,?,/
COC(=O)c1ccc2c(=O)n(CCCCCC(=O)NCCNC(C)=O)c(=O)[nH]c2c1,/,?,4%,-9%,/,3%,-10%,/
CCOC(=O)c1ccc(-c2c(-c3ccccc3OC)sc3cc4c(cc23)OCO4)cc1F,/,0%,/,3%,/,-5%,0%,/
COc1ccccc1CNC(=O)CN1C(=O)c2ccccc2S1(=O)=O,-5%,-20%[46.1 µM],1%[46.1 µM],-6%,/,1%,26%,/
O=C(Cc1ccc([N+](=O)[O-])cc1)N1CCN=C1SCc1ccccc1,7%,3%,?,-14%,-0.7%,1%,-16%,-14%
C=CCC1(C#N)C(=S)NC(C)=C(C(=O)OCC)C1c1ccccc1 (configuration not stated),3%,/,/,-2%,/,0%,-15%,/
COc1cccc(C2CC(=O)Nc3c2c(=O)n(C)c(=O)n3C)c1OC (configuration not stated),-15%,/,/,3%,1.9%,-5%,11%,1%
O=C(O)c1ccc(CSc2nnc(-c3ccncc3)n2-c2ccc(Cl)cc2)cc1,2%,/,/,-5%,/,1%,-9%,/
Cc1ccc(N2C(=O)C(Cl)=C(N3CCOCC3)C2=O)c(C)c1,-12%,/,/,0%,/,5%,-1%,/
O=C(Nc1cccc(-c2nc3cc(Cl)ccc3o2)c1)c1ccc(F)cc1,/,/,2%[46.1 µM],/,0.7%,/,-2%,-9%
O=C(CN1CCN(S(=O)(=O)c2cc(Cl)ccc2Cl)CC1)c1ccc(O)c(O)c1,16%,/,/,1%,/,2%,?,/

# Screening data: PubChem, National Center for Advancing Translational Sciences (NCATS)
